Source: PubChem BioAssay
RECQ1 helicase: blocks DNA unwinding by human RECQ1; hit rate 0.54% among 240,000; RECQ1 DNA unwinding, red fluorescence kinetic read; AID 2549; Potency, µM (doses to about 57.3 µM), without a hit: at the top dose activity, negative = inhibition, most hits filed as inhibitors;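 also: plate controls were vehicle for no effect and no enzyme for full effect; nearly all actives have a fitted effect of over 30% in size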
Target sequence (P46063 whole entry, looked up): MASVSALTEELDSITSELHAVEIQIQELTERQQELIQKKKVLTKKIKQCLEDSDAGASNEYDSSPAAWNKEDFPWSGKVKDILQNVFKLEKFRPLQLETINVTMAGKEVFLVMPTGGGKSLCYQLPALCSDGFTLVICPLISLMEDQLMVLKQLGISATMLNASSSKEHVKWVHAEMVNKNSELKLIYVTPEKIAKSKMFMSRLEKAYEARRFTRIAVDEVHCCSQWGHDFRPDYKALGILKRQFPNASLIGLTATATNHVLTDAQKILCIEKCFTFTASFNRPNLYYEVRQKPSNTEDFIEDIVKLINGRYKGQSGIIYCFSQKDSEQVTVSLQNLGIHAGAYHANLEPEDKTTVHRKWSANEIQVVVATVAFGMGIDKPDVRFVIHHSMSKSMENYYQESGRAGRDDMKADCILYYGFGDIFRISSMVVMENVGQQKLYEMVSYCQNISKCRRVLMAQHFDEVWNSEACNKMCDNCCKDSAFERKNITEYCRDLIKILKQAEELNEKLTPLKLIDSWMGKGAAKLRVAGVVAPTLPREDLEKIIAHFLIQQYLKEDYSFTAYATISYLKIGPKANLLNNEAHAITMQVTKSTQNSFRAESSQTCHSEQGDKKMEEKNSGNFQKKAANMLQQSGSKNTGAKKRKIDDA
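50 nM RECQ1T1 preincubated 15 min with compound in Tris pH 8.0 buffer with MgCl2, DTT, Tween-20 and 2.5 ug/ml poly(dI-dC); started with 200 nM TAMRA/BHQ-2 forked duplex and 2 mM ATP. Unwinding read as fluorescence (525/598 nm), two reads 2 h apart.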
KinaseGlo FLuc: blocks Kinase-Glo luciferase, a counter-screen artifact; hit rate 0.28% among 200,000; Q27757; Potency, µM (series often up to 38.3 µM), for inactives: at the highest dose activity change, negative = inhibition, most hits filed as inhibitors; Kinase-Glo luciferase, ATP luminescence, 8 min; also: % is scaled to controls: 0 for no effect and ±100 for the full control effect; nearly all actives have a fitted effect of over 60% in size
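Inhibition of Kinase-Glo luciferase light generation was assessed at 10 uM ATP in pH 7.2 imidazole buffer, with luminescence measured after eight minutes at ambient temperature.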
Tau fibril ThT: tau fibrillization inhibition (ThT binding); Potency, µM (series often up to 57.4 µM), without a hit: top-dose activity, negative = inhibition, hits mostly inhibitors; recombinant tau K18 P301L (four-repeat tau fragment), heparin-induced fibrillization, ThT fluorescence; hit rate 2.1% among 270,000; also: % is scaled to controls: 0 for no effect and ±100 for the full control effect; nearly all actives have a fitted effect of over 55% in size
Target sequence (P10636 561-689 P618L limits assumed): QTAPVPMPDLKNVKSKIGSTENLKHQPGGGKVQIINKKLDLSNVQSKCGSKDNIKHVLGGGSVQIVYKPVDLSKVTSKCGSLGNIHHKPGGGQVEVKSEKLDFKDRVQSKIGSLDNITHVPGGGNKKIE
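Aggregation was driven by heparin (20 uM final) acting on recombinant tau […] bearing P301L in 100 mM sodium acetate pH 7; fibrils were detected with Thioflavin T.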
Lamin A splicing: modulators of lamin A splicing. AID 1487. Potency, µM (top dose mostly 46.1 µM), for inactives: at the top dose ratio change, negative = inhibition, usual class: inhibitors. hit rate 0.01% among 200,000. HeLa LMNA splicing GFP/RFP minigene ratio, 48 h; active = well fitted inhibition curve with a large enough effect in the signal ratio, with a control signal flat, not every such curve was filed as active; inconclusive = small, poorly fitted or top-dose-only effect, or effect the other way, or a change in a side signal; the % refers to the signal ratio; also: % is scaled to controls: 0 for no effect and ±100 for the full control effect
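S3 HeLa cells stably expressing lamin A-EGFP splicing minigene plus DsRed2, 600 cells/well, 48 h compound exposure at 37C. Laser-scanning cytometry; analysed as GFP (500-530 nm)/RFP (575-640 nm) total intensity ratio; 0.5% DMSO vehicle.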
KDM4E inh: JMJD2E (human) inhibition; hit rate 1.6% among 230,000; JMJD2E catalytic domain, FDH-coupled NADH fluorescence (FDH is formaldehyde dehydrogenase); Potency, µM (top dose mostly 57.1 µM), inactives show at the highest dose activity change, negative = inhibition, actives largely listed as inhibitors; AID 2147; active = well fitted inhibition curve with a large enough effect, not every such curve was filed as active; inconclusive = small, poorly fitted or top-dose-only effect, or another doubt; inactive = no such curve, though single readings can be large or run the other way;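 also: 0% = wells with enzyme and -100% = buffer wells without enzyme; nearly all actives have a fitted effect of over 50% in size; many of its hits are not listed in these tables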
L3MBTL1 block: blocks human L3MBTL1; Q9Y468; AlphaScreen L3MBTL1–H3K9me1 peptide binding; Potency, µM (titrated, usually from 57.1 µM), for inactives: at the top dose activity, negative = inhibition, usual class: inhibitors; hit rate 0.66% among 230,000; AID 485360; also: % is scaled to controls: 0 for no effect and ±100 for the full control effect; nearly all actives have a fitted effect of over 60% in size
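Read-out is AlphaScreen signal from streptavidin donor and nickel chelate acceptor beads (10 ug/mL final each) bridging L3MBTL1 (50 nM) and biotinylated K9-monomethylated H3(1-15) peptide (75 nM), after 30 min compound exposure at room temperature.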
SMN2 splice up: SMN2 splice variant enhancement | HEK293 SMN2-luciferase splicing reporter, luminescence, 30-36 h | Potency, µM (doses to about 46.1 µM), without a hit: at the top dose activity change, positive = activation, usual class: activators | hit rate 2.8% among 210,000 | AID 1458; also: % of control where 0% means no effect; nearly all actives have a fitted effect of over 55% in size
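qHTS luciferase splicing reporter: luminescence rises when SMN2 exon 7 is included in transfected HEK293 cells. Compound exposure lasted 30-36 h at 37C, with 4.5 mM final sodium butyrate as control, followed by a ONE-Glo read.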
Active calls of the source: *; i = inactive; u = inconclusive; x = not tested or not shown; & = joins results of further samples; [ ] = remark or other dose. Unless noted, calls follow the shape of the dose curve; as a rule, active = well fitted curve in the direction sought with a large enough effect; inconclusive = small, poorly fitted or top-dose-only effect, or another doubt; inactive = no such curve, though single readings can be large; an effect the other way counts as inactive or inconclusive. Potency is read from the fitted curve at half-maximal effect. Only part of the results is shown. The share of hits here may be higher or lower than overall.

SMILES	RECQ1 helicase	KinaseGlo FLuc	Tau fibril ThT	Lamin A splicing	KDM4E inh	L3MBTL1 block	SMN2 splice up
CC(=O)Nc1ccc(S(=O)(=O)NCCSCc2c(Cl)cccc2Cl)cc1	i	-1%	-12%	u	5%	-1%	-34%[inhibitor]
Cc1ccc(SCC(=O)Nc2ccc(N3CCOCC3)cc2)c(C)c1	i	-1%	-20%	x	-3%	x	-15%
CCn1c(N2CCC(C)CC2)nc2c1c(=O)n(C)c(=O)n2C	-7%	-3%	-9%	4%	0%	x	-15%
O=Cc1c2[nH]c3ccccc3c2cc2[nH]c3ccccc3c12	10%&14%&-6%	-1%	u	x	-11%	x	11%&28%&11%&3%
Cc1ccc(NC(=O)c2ccc(OC(=S)N3CCOCC3)cc2)cc1	1%	-1%	-8%	u	-1%	1%	2%
CCn1cc(NC(=O)Nc2ccc(OC)c(OC)c2)c(C(N)=O)n1	-1%	1%	-11%	-2%	-27%	-18%	-2%
Cc1cc(CNC(=O)CC2C(=O)NCCN2CC(C)(C)C)nn1C (stereo unspecified)	-14%	x	-14%	x	u	5%	x
Clc1ccc(Cn2ncc3c(NCCN4CCOCC4)ncnc32)cc1	-2%	0%	-4%	-2%	0%	-26%[11.4 µM]	-7%
COc1ccc(NC(=O)Cn2cnc3sc(C)c(S(=O)(=O)N4CCOCC4)c3c2=O)c(OC)c1	-3%	x	-5%	x	0%	x	x
Cc1nnc(N(Cc2ccco2)C(=O)c2ccno2)s1	i	-3%	3%	2%	1%	0%	7%
Cc1ccccc1Cn1c([N+](=O)[O-])cnc1C	0%	2%	-9%	-7%	-4%	10%	-6%
O=c1[nH]c(CN2CCN(C/C=C/c3ccccc3)CC2)nc2cc(Cl)ccc12	-3%	3%	-11%	-3%	-1%	x	-24%
Cc1ccc2cc3cc(C(=O)NCc4ccc5c(c4)OCO5)oc3nc2c1	14%	0%	-15%	3%	u	10%	-26%
CC(=O)CSc1nnc(Cc2ccc3c(c2)OCO3)o1	-6%	0%	0%	-6%	-5%	-2%	26%
O=c1[nH]c(NNC(=S)NCc2ccccc2)nc2c1C1(CCCCC1)Cc1ccccc1-2	-26%	0%	-5%	u	u	-18%	14%
CCC(=O)NC(C)c1nc2ccccc2n1C (stereo unspecified)	0%	-1%	6%	15%	-4%	0%	-13%
COn1c(SCc2cccnc2)nc2ccccc2c1=O	-3%	1%	-7%	0%	4%	-9%	-4%
COC(=O)c1ccc(=O)n(Cc2ccc3c(c2)OCO3)c1	-9%	x	-14%	2%	6%	6%	x
CCCCCC(C(=O)O)C(C)CC(=O)NC1CCCCC1 (stereo unspecified)	0%	1%	-2%	7%	13%	5%	-2%
COC(=O)C1=C(N)Oc2cc(C)[nH]c(=O)c2C1c1cccnc1 (stereo unspecified)	-8%	-1%	-2%	-1%	2%	1%	4%
CCCCCC1=CCC/C1=N\NC(=O)c1ccc2c(c1)OCO2	-14%	1%	-11%	3%[46 µM]	7%	8%	4%
O=C(O)/C(=C\c1ccc(Br)cc1)c1ccc(S(=O)(=O)N2CCCCC2)s1	-17%	5%	-8%	-15%	0%	-30%	-16%
O=C(NNC1=NS(=O)(=O)c2ccccc21)c1ccc(Cl)cc1	i	3%	-2%	x	-10%	4%	-5%
CSCCC(NS(=O)(=O)c1ccc(C)c(C(=O)O)c1)C(=O)O (stereo unspecified)	-13%	4%	-1%	-8%[46 µM]	u	8.9µM*	9%
CCCS(=O)(=O)Nc1cccc(-c2ccc3nnc(C)n3n2)c1	i	0%	-9%	x	-20%	x	16µM*

Another view of 14 compounds above.
SMILES | RECQ1 helicase | KinaseGlo FLuc | Tau fibril ThT | Lamin A splicing | KDM4E inh | L3MBTL1 block | SMN2 splice up
O=c1[nH]c(CN2CCN(C/C=C/c3ccccc3)CC2)nc2cc(Cl)ccc12 | -3% | 3% | -11% | -3% | -1% | x | -24%
Cc1ccc2cc3cc(C(=O)NCc4ccc5c(c4)OCO5)oc3nc2c1 | 14% | 0% | -15% | 3% | u | 10% | -26%
CC(=O)CSc1nnc(Cc2ccc3c(c2)OCO3)o1 | -6% | 0% | 0% | -6% | -5% | -2% | 26%
O=c1[nH]c(NNC(=S)NCc2ccccc2)nc2c1C1(CCCCC1)Cc1ccccc1-2 | -26% | 0% | -5% | u | u | -18% | 14%
CCC(=O)NC(C)c1nc2ccccc2n1C (stereo unspecified) | 0% | -1% | 6% | 15% | -4% | 0% | -13%
COn1c(SCc2cccnc2)nc2ccccc2c1=O | -3% | 1% | -7% | 0% | 4% | -9% | -4%
COC(=O)c1ccc(=O)n(Cc2ccc3c(c2)OCO3)c1 | -9% | x | -14% | 2% | 6% | 6% | x
CCCCCC(C(=O)O)C(C)CC(=O)NC1CCCCC1 (stereo unspecified) | 0% | 1% | -2% | 7% | 13% | 5% | -2%
COC(=O)C1=C(N)Oc2cc(C)[nH]c(=O)c2C1c1cccnc1 (stereo unspecified) | -8% | -1% | -2% | -1% | 2% | 1% | 4%
CCCCCC1=CCC/C1=N\NC(=O)c1ccc2c(c1)OCO2 | -14% | 1% | -11% | 3%[46 µM] | 7% | 8% | 4%
O=C(O)/C(=C\c1ccc(Br)cc1)c1ccc(S(=O)(=O)N2CCCCC2)s1 | -17% | 5% | -8% | -15% | 0% | -30% | -16%
O=C(NNC1=NS(=O)(=O)c2ccccc21)c1ccc(Cl)cc1 | i | 3% | -2% | x | -10% | 4% | -5%
CSCCC(NS(=O)(=O)c1ccc(C)c(C(=O)O)c1)C(=O)O (stereo unspecified) | -13% | 4% | -1% | -8%[46 µM] | u | 8.9µM* | 9%
CCCS(=O)(=O)Nc1cccc(-c2ccc3nnc(C)n3n2)c1 | i | 0% | -9% | x | -20% | x | 16µM*

Additional entries follow:
SMILES	RECQ1 helicase	KinaseGlo FLuc	Tau fibril ThT	Lamin A splicing	KDM4E inh	L3MBTL1 block	SMN2 splice up
Nc1cc2c(cc1C(=O)c1ccccc1)OCCO2	-3%	-7%	-16%	-7%	1%	-22%	-13%
N#CC1=C(N)OC2=C(C(=O)CCC2)C12C(=O)N1CCCc3cccc2c31 (stereo unspecified)	-5%	-2%	3%	16%	0%	x	11%
O=C(Cc1cccs1)Nc1nnc(C2CC2)s1	8%	-3%	3%	x	12%	-3%	u
O=C(O)c1cccc(NS(=O)(=O)/C=C/c2ccccc2)c1	-10%	3%	-4%	12%	-2%	x	10%
Cc1sc2nc[nH]c(=S)c2c1-c1ccccc1	-8%	3%	2%	u	4%	7%	-14%
CCOC(=O)C1CCCN(Cc2nc(N)nc(Nc3ccccc3OC)n2)C1 (stereo unspecified)	1%	5%	-10%	-11%	-1%	-2%	1%
O=C(Nc1ccccc1)N1CCc2c([nH]c3ccccc23)C1C(F)(F)F (stereo unspecified)	-8%	x	-14%	x	7%	-14%	x
COc1ccc(NC(=O)C(c2ccc(C)cc2)N(C)C(=O)CNC(C)=O)cc1 (stereo unspecified)	-10%	-4%	-7%	-8%	2%	x	-3%
Cc1nc2ccccc2c(C)c1C(=O)c1ccc(F)cc1	i	1%	-8%	u	u	-5%	-17%
COc1cc(NS(=O)(=O)c2ccc(NC(=O)c3ccc(C)o3)cc2)nc(OC)n1	-2%	5%	5%	15%	-6%	-24%[11.4 µM]	12%
Cc1cc(C)c2[nH]c(=S)cc(C)c2c1	i	-4%	u	1%	5%	x	-24%
O=C(CN(Cc1ccco1)C(=O)Cn1nnc(-c2cccs2)n1)NCC1CCCO1 (stereo unspecified)	i	1%	2%	x	-4%	0%	-3%
O=C(NCC1CCCO1)c1ccc2ccccc2n1 (stereo unspecified)	-1%	-5%	-6%	10%	-2%	x	24%
C=CCN(c1ccccc1)S(=O)(=O)c1ccc2c(c1)oc(=O)n2C	-12%	3%	-2%	u	5%	6%	8%
COc1cc(NC(=O)COC(=O)c2ccc(S(=O)(=O)N3CC(C)CC(C)C3)cc2)c(C)cc1[N+](=O)[O-] (stereo unspecified)	-3%	-2%	-7%	1%	6%	1%	-1%[1.84 µM]
C=C1C[C@]23CC[C@H]4C(CO)(CO)C[C@@H](O)C[C@@]4(C)[C@@H]2CC[C@H]1C3	2%	2%	-9%	x	5%	x	-27%
CSC(=NC1CCCCC1)NS(=O)(=O)c1ccccc1	-6%	-3%	-5%	3%	-6%	4%	-19%
CCC/C(=N\NC(=O)Cc1csc(N2CCOCC2)n1)c1ccccc1	6%	3%	-2%	u	15%	17%	-1%
Cc1c(CN(C)CCc2ccccc2)c(=O)n(-c2ccccc2)n1C	-13%	-4%	-7%	7%	u	-3%	-6%
COc1ccc(NC(=O)/C(=C\c2ccncc2)NC(=O)c2ccccc2)cc1	-3%	10%	-3%	17%[46 µM]	-12%	x	-14%
Oc1cccc2ccc(/C=C/c3ccc(Br)s3)nc12	-19%	u	6%	x	-3%	u	8.9µM*
CC(C)(C)OC(=O)N1CCOCCOCCNCCOCCOCC1	1%	4%	-3%	-6%	-2%	-6%	-26%
Cc1ccc(P(=O)(CO)c2ccc(C)cc2)cc1	i	-5%	3%	9%	2%	x	-8%
COc1ccc2nc(/C(C#N)=C\c3ccc(C(=O)O)cc3)[nH]c2c1	13%	x	u	x	u	x	x
Cc1cccc(-c2noc(CCCC(=O)N3CCOCC3)n2)c1	-8%	-3%	-15%	-1%	3%	x	11%
Next part:
SMILES	RECQ1 helicase	KinaseGlo FLuc	Tau fibril ThT	Lamin A splicing	KDM4E inh	L3MBTL1 block	SMN2 splice up
O=C(Nc1ccc(Oc2ncnc3cc(Cl)ccc23)nc1)c1ccc(F)cc1	-5%	x	-9%	x	1%	11%	x
C/C(Cn1nnc2ccccc21)=N\OC(=O)c1cc(F)c(F)cc1Cl	i	-5%	-1%	0%[46 µM]	22%	1%	-2%
CN(CC(=O)Nc1ccccc1Sc1ccccc1)C1CCCCC1	-20%	2%	-23%	u	1%	x	-23%
COc1ccccc1/C=C/C=C1N=C(/C=C/c2ccc(Cl)cc2)OC/1=O	9%	-2%	13µM*	-8%	u	-6%	0%
CN(C)C(C(=O)Nc1cc(Cl)cc(Cl)c1)c1ccccc1 (stereo unspecified)	-17%	5%	-6%	u	1%	-2%	-6%
Cc1cccc(-n2nc3c([n+]2[O-])CCc2nonc2-3)c1C	-9%	1%	-2%	5%	3%	-6%	-2%
